Source: PubChem (several laboratories)
Yeast UUG start: modulators of yeast start codon fidelity, primary screen, whole organism, S. cerevisiae, single point, plate reader; S. cerevisiae UUG-firefly luciferase reporter, luminescence/redox ratio; activity score, % at 18.7 µM; 350,000 tested, 0.13% active;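 active = replicate mean at a twofold rise or more, about +100% in these data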;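 note: firefly luciferase made from a UUG start codon reports start codon fidelity; reporter light over untreated wells divided by growth signal over untreated wells; some hits fall short of that in this replicate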
CSC inhib: cancer stem cell viability inhibitors, primary screen, luminescence; cancer stem cell-like cells viability; inhibition, % at 7.5 µM; 300,000 tested, 1.1% active;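 active = mean at 75% or more and at least half the replicates too; inconclusive = mean and replicates disagree; tested in HMLE shEcad cells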;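 note: 0% = median of negative and 100% = median of positive control wells; the first replicate is given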
Env fusion inh: inhibitors of HIV-1 Env-driven cell-cell fusion, primary screen, HeLa-JRFL effector, CEM21 target cells, luciferase; inhibition, % at 12.3 µM; AID 651610, 2012; 360,000 tested, 1.1% active;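 active = mean replicate inhibition score of at least 50 and every replicate individually at or above 50; inconclusive = only one of the two criteria met; inactive = mean below 50 and not all replicates reaching 50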;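 note: 0% = plate neutral controls and 100% = maraviroc near 300 nM; one replicate is shown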
eIF4H inh: human eIF4H binding inhibitors, primary screen, translation initiation inhibitor project, biochemical, uHTS, fluorescence polarization; inhibition, % at 35 µM; eIF4H fluorescence polarization binding assay; AID 2012, 2009; Eukaryotic translation initiation factor 4H (Homo sapiens), Q15056; 290,000 tested, 0.94% active;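 active = 50% or more with normal probe brightness, or confirmed in later tests; inconclusive = above 50% with abnormal brightness, or retests that disagree; inactive = below 50% or failed in later tests; about a fifth of its hits are not listed in these tables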;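 note: calls also rest on retests at 20 µM and on dose response follow-up; 0% = protein and probe with vehicle and 100% = probe without protein; strong numbers were not always called active; many hits fall short of the cut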
PABP polyA inh: PABP poly(A) RNA binding inhibitors, primary screen, biochemical, fluorescence polarization, uHTS | inhibition, % at 35 µM | Polyadenylate-binding protein 1 (Homo sapiens), P11940 | 290,000 tested, 1% active;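 active = 50% or more with normal probe brightness, or confirmed in later tests; inconclusive = above 50% with abnormal brightness, or retests that disagree; inactive = below 50% or failed in later tests; about a fifth of its hits are not listed in these tables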;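 note: calls also rest on retests at 20 µM and on dose response follow-up; controls were probe without protein and protein plus probe with vehicle; some compounds called inactive have numbers as strong as hits; many hits fall short of the cut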
Target sequence (P11940 whole entry, looked up): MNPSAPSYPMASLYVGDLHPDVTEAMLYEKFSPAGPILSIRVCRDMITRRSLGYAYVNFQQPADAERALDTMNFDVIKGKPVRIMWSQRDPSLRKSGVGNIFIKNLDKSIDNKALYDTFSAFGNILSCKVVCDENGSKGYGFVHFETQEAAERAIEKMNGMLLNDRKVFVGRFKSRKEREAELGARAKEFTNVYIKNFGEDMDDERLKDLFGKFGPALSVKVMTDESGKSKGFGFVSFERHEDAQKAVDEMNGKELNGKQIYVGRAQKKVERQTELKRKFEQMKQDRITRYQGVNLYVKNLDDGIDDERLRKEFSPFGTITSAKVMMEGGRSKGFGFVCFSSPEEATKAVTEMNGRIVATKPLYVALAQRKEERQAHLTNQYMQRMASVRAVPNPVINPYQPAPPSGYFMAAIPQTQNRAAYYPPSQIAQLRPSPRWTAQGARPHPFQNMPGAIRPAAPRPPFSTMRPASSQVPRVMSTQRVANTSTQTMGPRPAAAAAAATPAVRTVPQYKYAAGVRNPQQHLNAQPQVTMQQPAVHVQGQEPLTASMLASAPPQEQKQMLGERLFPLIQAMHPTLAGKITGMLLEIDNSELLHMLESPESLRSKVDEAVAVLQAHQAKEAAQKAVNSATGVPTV
MT1-MMP act inh: blockers of MT1-MMP proenzyme processing, primary screen, HT1080 RFP-PRO-GFP cells, GFP/RFP fluorescence; Matrix metalloproteinase-14 (Homo sapiens), P50281; GFP/RFP ratio fluorescence, overnight; percent of plate control window, DMSO zero; GFP/RFP ratio change, % at 20 µM; 360,000 tested, 0.061% active;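 active = GFP/RFP ratio change of at least 30% with cell ATP level not reduced by more than half and red fluorescence within 50% of control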; note: strong numbers were not always called active
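Assay system – RFP-PRO-GFP reporter HT1080 cells · Compound dosing – single dose of 20 µM compound, 1% DMSO final · Incubation – overnight compound exposure at 37 °C · Measure – GFP/RFP fluorescence ratio · Benchmarks – DMSO wells and RFP-L50D-GFP cells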
Rce1 inhib: yeast Rce1p protease inhibitors, primary screen, biochemical, fluorescence, cell-free homogeneous | yeast membranes, quenched prenylated peptide cleavage fluorescence | AID 2563, 2010 | CAAX prenyl protease 2 (Saccharomyces cerevisiae (strain ATCC 204508 / S288c)), Q03530 | calls only | 290,000 tested, 0.27% active;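 active = fall in fluorescence gain of 50% or more versus controls, with final raw signal at or below 3038400; inconclusive = same 50% fall but final raw signal above 3038400; inactive = fall in fluorescence gain under 50%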;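 note: plate controls were neutral control wells for no effect and wells lacking membranes for full effect; tested at 10 µM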
eIF4H inh retest: further read-out of eIF4H inh, marked with its call; inhibition, %; compound at 20 µM; confirmation average;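 mean of two retest wells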
PABP polyA inh retest: second read-out of PABP polyA inh, no call of its own (marks repeat the call); inhibition, %; compound at 20 µM; confirmation repeats;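 mean of two retest wells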
MT1-MMP act inh RFP: also measured in MT1-MMP act inh; calls as there; RFP signal change, %; measured here: RFP expression control read;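 0 = vehicle wells; hits needed this value within 50% of zero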
* hit, by the source's call; i = inactive; ? = inconclusive; · = no result given; + = active, no number. Not all compounds are listed; the hit share may differ from the screen's.

SMILES	Yeast UUG start	CSC inhib	Env fusion inh	eIF4H inh	PABP polyA inh	MT1-MMP act inh	MT1-MMP act inh RFP	Rce1 inhib	others
CCN(CC)S(=O)(=O)c1ccc(NC(=O)CSc2ncnc3ccccc23)cc1	·	-13	15	-3	-3	2	-2	i
CC#CC(=O)N1CCC(Oc2cccc(C(=O)NCc3ccccn3)c2)CC1	-3	-3	-3	-8	14	-1	-2	i
CCN(CC)C(=O)CN1C(=O)COCC1=O	-3	0	·	8	-16	1	2	i
CC(=O)O[C@H]1C(=O)[C@]2(C)[C@H]([C@H](OC(=O)c3ccccc3)[C@]3(O)C[C@H](OC(=O)[C@H](O)[C@@H](NC(=O)c4ccccc4)c4ccccc4)C(C)=C1C3(C)C)[C@]1(OC(C)=O)CO[C@@H]1C[C@@H]2O	-2	50	-89	·	·	-9	-14	i
Cc1cc(C(=O)COc2ccc3ccc(=O)oc3c2)c(C)n1Cc1cccs1	·	16	8	6	12	-1	-4	i
Cc1ccc(NC(=O)c2ccccc2NS(=O)(=O)c2ccc(Cl)s2)cc1S(=O)(=O)N1CCOCC1	·	·	29	9	2	-17	-33	i
Cc1ccc(NC(=O)C2C3CCC(O3)C2C(=O)O)cc1C (stereo not given)	-30	12	-28	9	9	2	6	i
O=[N+]([O-])c1cc(/C=N\Nc2nc(-c3ccccc3)cs2)ccc1O	·	-21	-7	-2	-9	17	-3	i
O=C(NCCc1ccccc1)C(=O)N/N=C/c1ccc2c(c1)OCO2	-4	-4	·	-3	-2	0	2	i
N#Cc1nc(Cc2ccccc2)oc1NCc1ccccc1Cl	-9	·	·	-2	-3	-1	-9	i
CCn1c(SCC(=O)NC)nnc1C(C)C	-13	-7	·	-4	1	7	3	i
COc1cc(C2Nc3cccc4cccc(c34)N2)ccc1OC(C)=O	-3	12	·	105*	88*	31*	2.9*	i
CCOC(=O)N1CCN(C(=O)CSC2=NS(=O)(=O)c3cc(Cl)ccc3N2)CC1	-11	0	4	·	·	-3	-3	i
CC/C(=N\NC(=O)CSCc1ccccc1Br)c1ccc2c(c1)OCCO2	-14	2	-27	-10	-1	6	6	i
Cc1ccc2nc(-c3ccccc3)c(CN3CCSCC3)n2c1	·	1	-12	4	-1	5	9	i
CC(=O)Nc1ccc2nc(N)sc2c1	-8	-1	·	·	·	0	5	·
NS(=O)(=O)c1ccc(NC(=O)c2cc(Cl)sc2Cl)cc1	-11	-8	4	-8	3	-3	1	i
CCOc1cc(C2C(C#N)=C(N)Oc3n[nH]c(C)c32)ccc1OCCN1CCOCC1 (stereo not given)	-10	-6	5	-3	-3	-1	-5	i
O=C(NNC(=S)NCc1ccco1)c1ccc(S(=O)(=O)N2CCOCC2)cc1	·	-3	-1	-5	5	3	1	i
OC(c1cccc(F)c1)c1ncc(-c2ccc(Oc3ccccc3)cc2)[nH]1 (stereo not given)	-26	·	?	·	·	-5	-16	·
Cc1cccc(Nc2ccccc2C(=O)OCC(=O)N(C)C2CCS(=O)(=O)C2)c1C (stereo not given)	-7	13	·	-2	-9	-3	0	+
NC(=O)C(=O)NCCCN1CCOCC1	·	-13	14	-12	-3	0	5	i
CCc1cc(C(=O)NNC(=S)NC2CCCCC2)cs1	-28	9	-30	11	0	2	-6	i
CC(C)c1ccccc1OCCNS(C)(=O)=O	-8	·	·	0	-15	3	4	i

Pulled by structure from the list above:
SMILES	Yeast UUG start	CSC inhib	Env fusion inh	eIF4H inh	PABP polyA inh	MT1-MMP act inh	MT1-MMP act inh RFP	Rce1 inhib	others
CCc1cc(C(=O)NNC(=S)NC2CCCCC2)cs1	-28	9	-30	11	0	2	-6	i
CC/C(=N\NC(=O)CSCc1ccccc1Br)c1ccc2c(c1)OCCO2	-14	2	-27	-10	-1	6	6	i
OC(c1cccc(F)c1)c1ncc(-c2ccc(Oc3ccccc3)cc2)[nH]1 (stereo not given)	-26	·	?	·	·	-5	-16	·

Later entries:
SMILES	Yeast UUG start	CSC inhib	Env fusion inh	eIF4H inh	PABP polyA inh	MT1-MMP act inh	MT1-MMP act inh RFP	Rce1 inhib	others
CCOC(=O)c1c(C)[nH]c(C(=O)COC(=O)[C@H](C)NC(=O)c2ccccc2Cl)c1C	·	0	11	-4	4	3	4	i
CCc1ccc2nc3sc(C(=O)Nc4nnc(CC)s4)c(N)c3cc2c1	-15	16	·	20	4	-341	-3	i
CC1CCCC(NC(=O)CCC(=O)N2CCOc3ccccc32)C1C (stereo not given)	-4	-10	0	-10	5	-1	0	i
CN(C)S(=O)(=O)c1ccc(NC(=O)CSc2nc3ccccc3n2-c2ccccc2)cc1	·	11	16	-1	1	-7	-11	i
CC(=O)Nc1ccc(Sc2ncccc2C(=O)Nc2cc(Cl)cc(Cl)c2)cn1	23	-14	·	-5	-11	0	-3	i
O=C(OCCN1C(=O)c2ccccc2C1=O)C1CCN(S(=O)(=O)c2cccs2)CC1	-17	-9	-16	-12	-2	1	-1	i
COc1ccc(NC(C)=O)cc1S(=O)(=O)Nc1cccc(S(=O)(=O)NC2=NCCC2)c1	-1	-6	·	·	·	1	0	·
CCOC(=O)C1CCCN(C(=O)c2ccc(C)c([N+](=O)[O-])c2)C1 (stereo not given)	·	-4	·	0	-8	2	5	i
COc1cc(C2Nc3ccccc3C(=O)N2c2ccc(Cl)cc2)c(Cl)cc1OCC(=O)O (stereo not given)	-12	8	·	0	-4	-1	0	i
O=C(CCc1nc(-c2ccccc2)no1)NC1CCCCC1	-15	9	-22	-17	-7	·	·	i
O=C(O)/C=C/c1ccc(S(=O)(=O)Nc2ccc(C(=O)NCC(=O)O)cc2)cc1	·	9	-9	4	-11	1	-1	i
COc1ccc2c(C(=O)c3ccc(C)cc3)n(Cc3ccc(C(N)=O)cc3)[n+]([O-])c2c1	6	-9	-58	·	·	11	3	·
CN1CCc2c(C#N)c(N3CCOCC3)nc(NCC3CCCO3)c2C1 (stereo not given)	-17	3	-3	43	24	1	1	i
O=C(Nc1ccc(Cl)cn1)c1ccc(COCC(F)(F)C(F)F)o1	-14	-13	4	-6	7	5	-5	i
O=C(COc1ccc2ccccc2c1Br)Nc1ncn[nH]1	·	-9	·	-8	-4	2	-2	i
Cc1cc(Br)ccc1NC(=O)c1ccccc1-c1ccccc1	-7	5	4	-5	-6	-6	-13	i
COc1cc2nc(C)sc2cc1SC	-19	-10	i	-2	-4	0	1	i
O=S(=O)(Nc1cccc(-c2nc3cccnc3s2)c1)c1ccc2c(c1)OCCO2	-9	27	-25	-4	-2	4	-4	i
CCCNC(=O)COc1coc(CN2CCN(c3ccc(F)cc3)CC2)cc1=O	-7	-5	4	2	-10	-1	0	i
C=CCN1C(=O)C2(C(C#N)=C(N)Oc3n[nH]c(CCC)c32)c2ccccc21 (stereo not given)	-39	-7	·	-4	9	-3	-4	i
CCN(Cc1ccccc1)C(=O)Cn1c(=O)n(CC(=O)NCc2ccco2)c(=O)c2sccc21	-4	1	-6	-2	-4	3	2	i
C=CC[C@@H](CC(=O)N[C@@H](CO)Cc1ccccc1)C(=O)N[C@H](COC(=O)[C@H](CC=C)CC(=O)OC(C)(C)C)Cc1ccccc1	-4	-17	-36	·	·	-7	-11	·
O=c1sc2ccccc2n1COc1ccccc1	10	·	-90	9	7	0	4	·
CC(=O)N1N=C(C)CC1c1ccc(OCc2ccccc2)cc1 (stereo not given)	·	-12	-18	-2	-1	3	2	i
O=C(COc1ccc2ccccc2c1)N1CCN(C(=O)c2ccc([N+](=O)[O-])cc2)CC1	-4	·	5	2	-1	-1	-5	i
CCNC(=O)c1ccc2c(c1)S(=O)(=O)c1ccccc1C2=O	-17	6	·	-14	-1	4	2	i
CC(C)(C)c1ccc(C(=O)N2CCN(C(=O)c3ccco3)CC2)cc1	-8	-1	-3	-11	-6	-2	-3	i
COc1ccc(N2CCN(C(=O)c3ccc(CS(=O)c4cccc(Cl)c4)o3)CC2)cc1 (stereo not given)	-16	·	20	·	·	9	-7	·
C=CCn1c(SCC(=O)c2ccc(NS(=O)(=O)c3ccccc3)cc2)nnc1-c1cccs1	-19	-3	14	-16	-6	-1	-1	i
CCN(CC)c1ccc(CNc2nnnn2C)cc1	-5	-9	13	-11	3	0	-2	i
CC(C)C(=O)Nc1ccc(NC(=S)NC(=O)c2ccc([N+](=O)[O-])cc2)cc1	-3	·	-55	-9	0	7	2	i
Cc1cc(C)c(C#N)c(Oc2ccccc2Br)n1	·	-7	-13	-7	-8	-2	3	i
COCCN(C(=O)CSc1nnc(-c2cccc(OC)c2)n1C)c1c(N)n(Cc2ccccc2)c(=O)[nH]c1=O	·	-1	·	-2	-7	1	4	i
Cc1[nH]c2ccccc2c1C(=O)Cn1c(=O)oc2ccccc21	·	-8	·	-2	-4	-5	-6	i
CCCn1c(SCC(=O)N2N=C3/C(=C/c4ccc(OC)cc4)CCCC3C2c2ccc(OC)cc2)n[nH]c1=O (stereo not given)	-8	1	23	-11	?	-8	-5	i
CCC(=O)N1N=C(c2cccs2)CC1c1ccco1 (stereo not given)	·	-9	-13	-4	-12	-3	-6	i
CCOC(=O)C(C(=O)N1CCOCC1)C1CCCCC1 (stereo not given)	-9	-4	-28	-7	1	4	-2	i
Cc1nnsc1C(=O)Nc1ccc(S(=O)(=O)N2CCCCC2)cc1	-18	5	-1	4	-3	6	-8	i
CCOC(=O)CN(C(=O)CSc1nnc2c(n1)[nH]c1ccc(F)cc12)c1ccccc1	6	-8	-2	4	-5	8	-4	i
CCOC(=O)C(CC)(CC)C(=O)/C=C/c1ccc(OC)cc1	·	14	12	0	4	-1	-10	i
CCOc1ccccc1NC(=O)CC1SC(=N)N(c2ccccc2)C1=O (stereo not given)	·	0	7	1	0	·	·	·
COc1ccc(C(=O)NC(=S)Nc2ccc3c4c(cccc24)CC3)cc1OC	-9	-1	8	12*	64*	-31	-1	i	eIF4H inh retest=99*;PABP polyA inh retest=100*
CCN(CCn1cccn1)Cc1nc(-c2ccc(C(=O)OC)cc2)no1	·	-4	-5	8	1	2	0	i
Cn1cc(Br)c(C(=O)Nc2sc3c(c2C(N)=O)CCCC3)n1	-21	4	-42	-2	9	5	2	i
Cc1ccc(NC(=O)N2CCCN(Cc3ccc(F)cc3)C2)cc1C	·	-2	·	-8	-6	0	5	i
CC(=O)NCCNc1nc(NCc2cccs2)nc2ccsc12	-17	·	-21	·	·	7	10	·
Cn1c(=O)c2sccc2n2c(CCCC(=O)NCCc3ccccc3)nnc12	-10	1	-4	7	1	-1	0	i
COc1ccc(N=C2C(=O)N3CCCc4cccc2c43)cc1	·	34	10	7	-2	3	0	i
O=C(OCC(=O)N1CCN(C(=O)c2ccco2)CC1)c1cccc(O)c1	-15	17	-13	-2	23	0	3	i
Clc1ccc(SCc2cc(-c3ccccc3)no2)cc1	-1	0	·	-11	7	2	2	i
Cc1nc(N)sc1C(=O)OCC(C)C	-3	-11	-17	5	-6	9	-2	i
CSc1ccccc1CNc1nc(NCC2CC2)nc2ccsc12	-13	·	56*	·	·	12	-21	·
